Screening results deposited in PubChem by ICCB-Longwood Screening Facility, Harvard Medical School.
Sa growth 42C = blocks Staphylococcus aureus growth | 0.53% of 170,000 active | AID 720641 | S. aureus RN4220 growth, OD600, 20 h, 42 °C; hits give low values | relative growth, % (no concentration beside the values);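 active = growth at 42 °C up to 50% and 20 or more points under that at 30 °C, or under 10% at both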;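 also: 300 nL library stock went into each well; scaled to the means of positive and negative controls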
HCMV UL50-53 inh = disrupts HCMV UL50-UL53 complex binding | HTRF UL50-UL53 interaction, normalized percent inhibition | 0.15% of 190,000 active | AID 1918969 | inhibition, % (concentration not given with the values);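 active = both replicates at 50% or more, plus weaker picks with an unusually low signal ratio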;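 also: stock transfer was 100 nL into about 20 µL; 0% = negative control wells and 100% = wells with untagged competitor protein; inactives centre near -12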
GIV-Gai inh = GIV-Galpha-i interaction inhibition. Galpha-i3/FITC-GIV peptide fluorescence polarization, 90 min; hits give low values; scaled: aluminum fluoride 0%, vehicle 100%. AID 1224905. P08753. percent of control (FP), % (concentration not given with the values). 0.42% of 210,000 active;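 active = replicate mean at 85% of control or lower, very high polarization wells dropped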;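 also: wells of about 15 µL received 100 nL stock; the first replicate is given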
Target sequence (P08753 whole entry, looked up): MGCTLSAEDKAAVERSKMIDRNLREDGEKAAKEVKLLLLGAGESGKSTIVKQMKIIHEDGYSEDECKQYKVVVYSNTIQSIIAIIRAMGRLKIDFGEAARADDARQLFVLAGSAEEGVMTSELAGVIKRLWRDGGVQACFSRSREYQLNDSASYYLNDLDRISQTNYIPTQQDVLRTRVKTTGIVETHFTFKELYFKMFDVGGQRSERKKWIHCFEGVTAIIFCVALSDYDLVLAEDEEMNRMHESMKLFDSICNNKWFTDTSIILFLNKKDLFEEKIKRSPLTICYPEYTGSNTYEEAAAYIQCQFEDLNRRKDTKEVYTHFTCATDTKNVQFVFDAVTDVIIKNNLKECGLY
Sa growth 42C second temp = further read-out of Sa growth 42C, marked with its call; relative growth, %; measured here: growth at 30 °C;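 optical density after 20 h as mean of two plates; 100% = untreated growth and lower means inhibition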
* marks the source's active call; other numbers are inactive results; x = not tested or not shown; & = joins results of further samples.

Compound	Sa growth 42C	Sa growth 42C second temp	HCMV UL50-53 inh	GIV-Gai inh
COc1ccc(Cn2c(=O)c3oc4ccccc4c3n(Cc3ccccc3)c2=O)cc1	104	93	x	98
O=C(O)CCN1CCN(c2cccc(Cl)c2)CC1	92	89	4	98
O=C(O)c1cc2c(s1)CS(=O)(=O)C2	88	86	3	101
CCOc1ccc(NC(=O)C2CCCN(c3nn4cc(-c5ccc(OC)cc5)nc4s3)C2)cc1 (stereo not drawn)	107	99	x	110
Nc1c(C(=O)NC2CC2)sc2nc(-c3ccncc3)ccc12	106	91	-100	119
Cc1ccccc1OCC(=O)NCC(c1ccc(Cl)cc1)N1CCOCC1 (stereo not drawn)	98	86	-33	102
O=C(c1ccc2c(c1)N(Cc1cccc(Cl)c1)C(=O)c1ccccc1S2(=O)=O)N1CCN(c2cccc(C(F)(F)F)c2)CC1	102	86	x	97
CC1CN(CC(=O)Nc2ccc(S(N)(=O)=O)cc2)CC(C)O1 (stereo not drawn)	91	80	-26	101
O=C(Nc1cccc(Cl)c1)C1CCCN(c2nn3cc(-c4ccc(F)cc4)nc3s2)C1 (stereo not drawn)	101	89	x	103
Cc1cc(SCC(=O)Nc2ccc(Cl)cc2)nc2ccccc12	110	81	-32	102
C=CCN1C(=O)c2ccccc2C1C(=O)NCc1cccnc1 (stereo not drawn)	87	84	2	107
CCOC(=O)C1=C(C)OC(N)=C(C(=O)OCC)C1c1cccnc1 (stereo not drawn)	113	81	-12	x
Cc1[nH]c2ccc(-c3nnc(SCC(=O)N4CCc5ccccc54)o3)cc2c1C	127	105	0	104
O=C(Cc1csc(Nc2nc(=S)[nH]c3ccccc23)n1)NCc1cccc(Cl)c1	110	82	x	104
Cc1ccc(C(=O)O)cc1Nc1nc2ccccc2n2cnnc12	105	88	-3	76*
O=C1CCCN1c1ccc(S(=O)(=O)Nc2noc3ccccc23)cc1	103	98	-18	103&95
Cc1cccc2nc(CSCc3ccco3)cn12	101	96	10	x
Cc1ccc(Cl)cc1NC(=O)CN(C)S(=O)(=O)c1ccc2c(c1)n(C)c(=O)c(=O)n2C	106	92	-1	101
CCOc1cccc2cc(-c3nnc(Nc4ccc(Cl)cc4Cl)s3)c(=O)oc12	x	x	-2	109
O=C1c2cccnc2C(=O)N1CCc1ccc(S(=O)(=O)N2CCN(C3CCCCC3)CC2)cc1	x	x	-6	102
Cc1cccc(C(=O)OCC(=O)NCc2ccccc2Cl)c1O	120	102	13	x
CC1=C(/C=C/C(C)=N\NC(=O)c2ccncc2)C(C)(C)CCC1	60	39	8	100
CC1=C(C(=O)Nc2ccc(F)cc2)C(c2ccc(F)cc2)C2=C(CCCC2=O)N1 (stereo not drawn)	87	77	-14	103
COCCNC(=O)c1[nH]c2cc(C)ccc2c1Sc1ccc(Cl)cc1	99	99	-26	98
Nc1ccccc1-c1nnc(SCc2ccccc2)[nH]c1=O	114	80	0	107
Cc1ccc(N2C(=O)N(CC(=O)N3CCC(C)CC3)c3ccccc3S2(=O)=O)cc1	103	103	-1	107
Clc1ccc(-c2cncn2N2CCCCC2)cc1	86	86	-2	103
COc1ccc(C(=O)Nc2nnc(S(=O)(=O)N(CC(C)C)c3ccccc3)s2)cc1	104	89	-10	106
CCCOC(=O)C(N)c1ccccc1 (stereo not drawn)	107	77	-1	104
Cc1ccc(N=Cc2ccc3c(c2)OCO3)c(Br)c1	84	83	-8	x
O=C(c1ccc2c(c1)OCO2)c1cc2ccc(O)cc2oc1=O	76	78	-11	105
COC(=O)c1ccc(NC(=O)CSC2=NC(=O)CC(=O)N2)cc1	82	62	-13	104
Cc1ccc(NS(=O)(=O)c2ccccc2)c(NS(=O)(=O)c2ccccc2)c1	155	79	18	103
CCOC(=O)c1ccc(Nc2nc3ccccc3n3cnnc23)cc1	101	92	0	103
S=C1N[C@H]2CCCC[C@@H]2N1	94	93	-30	103
CC(C)(C)c1nnc2sc(SCC(=O)NCc3ccco3)nn2c1=O	94	88	20	x
Cc1cccc(OCC(=O)Nc2ccc3c(c2)NC(=O)CO3)c1	x	x	-27	109
COc1ccc(C(=O)NCCSc2ccccc2C)cc1	91	100	2	96
Cc1sc(-n2c(C)cc(/C=C(\C#N)C(=O)NCc3ccco3)c2C)c(C#N)c1C	84	75	-3	112
CCc1ccc(-n2nc(C)c3c(C)cc(=O)n(CC(=O)Nc4ccc(C)c(F)c4)c32)cc1	102	102	x	104
Cn1c(=O)nc2n(-c3cccc(C(F)(F)F)c3)c3ccccc3cc-2c1=O	101	90	-14	x
Cc1ccc2nc(N(Cc3cccnc3)C(=O)CCOc3ccccc3)sc2c1	117	86	x	101
COc1cc(S(=O)(=O)N2CCN(c3ccccc3F)CC2)c(OC)cc1Cl	87	96	7	98
Cc1ccc(Nc2c(-c3ccncc3)nc3ccc(C)cn23)cc1	89	89	-6	101
CCOC(=O)c1cccc(NC(=O)Cn2cnc3nc4c(cc3c2=O)CCCC4)c1	82	86	x	101
Cc1ccc(C)n1Cc1cccs1	84	91	-33	x
Cc1nn2c(NCCOCCO)cc(C(C)(C)C)nc2c1-c1ccc(F)cc1	x	x	-22	98
COc1cccc(N2CCN(C(=O)c3cc4c(=O)n(Cc5ccccc5)ccc4nc3C)CC2)c1	87	99	x	108
O=C(C1CCC(CNS(=O)(=O)c2ccc(Br)s2)CC1)N1CCN(c2ccc(F)cc2)CC1 (stereo not drawn)	94	94	-3	101
Cn1nc(C(=O)NCCc2ccccc2)c2c1-c1ccccc1SC2	x	x	-14	97
O=C(c1cccc(NS(=O)(=O)c2ccc(F)c(F)c2)c1)N1CCCCC1	113	89	-30	x
COC(=O)c1c(C)[nH]c(-c2csc(N)n2)c1C	94	88	-11	x
O=C(O)CC1(c2ccccc2)C(=O)c2ccccc2C1=O	98	83	x	98
CN(CCCc1ccccc1)CCc1ccccn1	122	80	-13	107
CCc1ccc(Nc2nc3c(S(=O)(=O)c4ccc(C)cc4)nnn3c3ccsc23)cc1	108	82	x	101
Oc1c(C(c2ccc(F)cc2)N2CCCCC2)ccc2cccnc12 (stereo not drawn)	103	23	-19	x
COC(=O)c1c(C)oc2ccc(N(C(=O)c3ccc(C)cc3)S(=O)(=O)c3ccc(Cl)cc3)cc12	x	x	-10	103
C=CCN1CCN(C(=O)C2CC2)CC1	103	101	-2	108
CCCCN(CC)CCNC(=O)Cn1c(=O)c2cccn2c2cccnc21	100	88	x	101
COc1ccc(CNC(=O)c2cc3cccc4c3n2CC(C)S4)c(OC)c1 (stereo not drawn)	101	102	x	112

Going on with the list.
Molecule,Sa growth 42C,Sa growth 42C second temp,HCMV UL50-53 inh,GIV-Gai inh
C=CCn1c(N)c(-c2nc3ccccc3[nH]2)sc1=S,89,84,-58,105
Cc1[nH]c(=O)[nH]c(=O)c1S(=O)(=O)NC1CCCCC1C (stereo not drawn),100,98,0,98
CC(C)=CC(=O)Nc1nc(C)c(C)s1,103,94,0,109
CCOC(=O)C1=C(NN(C)c2ccccc2)C(=O)N(C)C1,108,89,-22,x
O=S(=O)(Nc1cccc(-c2ccc(N3CCCCC3)nn2)c1)c1ccc2c(c1)OCCO2,117,115,0,110
Cc1ccn2c(Nc3ccccc3C)c(-c3ccccn3)nc2c1,101,79,-6,103
Cc1nc2c(c(C)nn2-c2ccccc2)c(C)c1CCC(=O)NCC1CCN(CC(C)C)C1 (stereo not drawn),x,x,-4,101
CCOc1ccccc1NC(=O)CC1C(=O)NCCN1C(=O)c1ccc(F)cc1 (stereo not drawn),82,92,-4,110
NC(=O)CSc1nc2ccc(NC(=O)COc3ccccc3)cc2s1,115,86,-16,96
CC1CCCC(C)N1C(=O)c1ccc(NC(=O)C(O)(c2ccccc2)c2ccccc2)cc1 (stereo not drawn),117,86,x,98
CSc1ccc(Oc2cc(F)ccc2C#N)cc1,99,86,-14,98
COc1ccc2c(c1)=C(c1sc(=S)[nH]c1O)C(=O)N=2,104,73,-2,x

A second format for some results above:
> COc1cccc(N2CCN(C(=O)c3cc4c(=O)n(Cc5ccccc5)ccc4nc3C)CC2)c1
- Sa growth 42C = 87
- Sa growth 42C second temp = 99
- HCMV UL50-53 inh = x
- GIV-Gai inh = 108

> O=C(C1CCC(CNS(=O)(=O)c2ccc(Br)s2)CC1)N1CCN(c2ccc(F)cc2)CC1 (stereo not drawn)
- Sa growth 42C = 94
- Sa growth 42C second temp = 94
- HCMV UL50-53 inh = -3
- GIV-Gai inh = 101

> Cn1nc(C(=O)NCCc2ccccc2)c2c1-c1ccccc1SC2
- Sa growth 42C = x
- Sa growth 42C second temp = x
- HCMV UL50-53 inh = -14
- GIV-Gai inh = 97

Additional compounds
Molecule,Sa growth 42C,Sa growth 42C second temp,HCMV UL50-53 inh,GIV-Gai inh
C=CCNC(=O)CC1Nc2ccccc2NC1=O (stereo not drawn),107,92,-70,152
Cc1ccc(Cl)cc1NC(=O)c1oc2ccc(S(=O)(=O)N(C)C3CCCCC3)cc2c1C,108,95,x,97
O=C(O)CC1OC(=O)c2cc3c(cc21)C(=O)OC3CC(=O)O (stereo not drawn),84,84,-12,95
CN(C)c1nc(Oc2ccc(=O)[nH]n2)nc(N2CCCCC2)n1,101,86,-11,x
O=C(CN1C(=O)COc2ccccc21)N1CCN(c2ccc(-c3noc(C4CC4)n3)cc2)CC1,x,x,6,106
COC(=O)C1=C(C)NC2=C(C(=O)CC(c3ccc(OC)cc3)C2)C1c1cc(Br)c(O)c(OC)c1 (stereo not drawn),x,x,-13,101
C=CCNc1oc(-c2ccc(S(=O)(=O)N3CCOCC3)cc2)nc1C#N,x,x,-40,104
CC(=O)Nc1c(C(=O)c2ccc(Cl)cc2)sc2nc(C)cc(C)c12,98,98,45,103
Cc1nc2nc3c(c(Nc4ccc(Cl)cc4)n2n1)CCC3,x,x,6,106
Cc1ccc(C2SCC(=O)N2Cc2cn3ccsc3n2)o1 (stereo not drawn),93,90,-29,x
Cc1cc(C)cc(NC(=S)NC2CCCCC2)c1,79,85,-31,102
CCOC(=O)c1cccc(NC(=O)CCn2nc(C)c3c(C)n(-c4ccccc4)nc3c2=O)c1,86,90,x,97
CSc1nc2cc(Cl)c(Cl)cc2[nH]1,74,77,0,102
COc1ccc(CCNc2cc3c(nn2)Oc2ccccc2N3C)cc1OC,91,88,x,104
COC(=O)c1ccccc1NC(=O)c1ccc2c(c1)CC(C)O2 (stereo not drawn),109,86,-46,x
Cc1ccc(CN2C3CCCC2CC(NC(=O)Nc2ccc(C#N)cc2)C3)cc1 (stereo not drawn),91,88,-10,103
Cn1cccc1C1=C(C#N)C(c2ccc(C#N)cc2)C(C#N)=C(N)O1 (stereo not drawn),77,72,-10,102
CC1CC(NC(=O)CCn2c(=O)oc3ccccc32)CC(C)(C)C1 (stereo not drawn),110,80,x,97
Cc1ccc2c(CNCC(C)c3ccccc3)c(C(=O)O)n(Cc3ccccc3C)c2c1 (stereo not drawn),99,92,x,102
COc1ccc(-c2nn(C)c(=O)c3ccccc23)cc1CNC(=O)c1ccco1,113,68,x,101
Oc1ccc(Br)cc1-c1cc(-c2ccco2)[nH]n1,49,41,-2,x
CCOC(=O)/C(C#N)=C/c1ccc(OC(=O)c2nn(C)cc2Br)cc1,95,90,-70,102
O=C(O)c1ccc2c(c1)CCCN2,93,96,1,108
COc1ccc(CSc2nc3ccccc3n2CCC#N)cc1F,94,89,-18,x
COc1ccc(S(=O)(=O)c2c(C)cc(C)n(CC(=O)Nc3ccc(OC)c(OC)c3)c2=O)cc1,x,x,-2,100
c1ccc(Cc2nn3c(-c4cccnc4)nnc3s2)cc1,x,x,-2,107
O=C(CSc1ncn[nH]1)CSc1ncn[nH]1,94,70,-30,104
CC(C)(C)C(=O)Nc1nnc(SCc2ccc(Cl)cc2Cl)s1,86,81,x,102
N#Cc1ccccc1Nc1ccnc(C(F)(F)F)c1,x,x,8,101
O=C(NCCCN1CCCC1=O)c1ccc(CN2C(=O)CCn3nc(-c4ccc(Cl)cc4)cc32)cc1,x,x,-15,102
CCOC(=O)c1ccc(N2C(=O)c3n[nH]c(C)c3C2c2cccc(Br)c2)cc1 (stereo not drawn),97,87,-1,109
O=S(=O)(c1ccc(N2CCOCC2)nc1)N(Cc1ccccn1)Cc1ccccn1,82,88,-17,110
COc1cc(C(=O)NCc2nnc(SCC(=O)Nc3cc(C)on3)o2)cc(OC)c1OC,98,88,-9,101
CC1(C)C(=O)N(CC(=O)Nc2cccc(Br)c2)c2ccccc21,x,x,-14,99
CCOc1ccc(C2CC(=O)Nc3c2c(C)nn3-c2ccc3nncn3n2)cc1 (stereo not drawn),x,x,9,107
